# Assay outcomes: PubChem BioAssay, National Center for Advancing Translational Sciences (NCATS)
# Menin MLL FP FL: qHTS Assay for Inhibitors Targeting the Menin-MLL Interaction in MLL Related Leukemias: Competition With Fluorescein Labeled MLL-derived Peptide; FP activity change, % at 61.4 µM; 290,000 tested, under 10 active; Fluorescence polarization, fluorescein-MLL peptide displacement from menin; inconclusive = falling polarisation curve, or a change in total fluorescence; inactive = total fluorescence flat and polarisation flat or rising; no compound was filed as active; the % refers to the polarisation; negative = inhibition;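 further: % of control where 0% means no effect; inhibitors lower the polarisation; unlabelled MLL peptide was the positive control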
# ClpP mod: qHTS Assay for Activators of ClpP; hit rate 1.9% among 340,000; Potency, µM (doses to about 57.5 µM), for the others: top-dose activity change, negative = active; purified B. subtilis ClpP, FRET peptide cleavage, 20 min; AID 651965, 2013; active = well fitted falling curve with a large enough effect; inconclusive = small, poorly fitted or top-dose-only effect; inactive = no such curve, though single readings can be large or run the other way; further: potency means the concentration at half of the fitted maximal effect; the source files actives as falling curves though it sought activators and does not explain the sign; nearly all actives have a fitted effect of over 65% in size; many hits overshoot -100%
# Target sequence (P80244 whole entry, looked up): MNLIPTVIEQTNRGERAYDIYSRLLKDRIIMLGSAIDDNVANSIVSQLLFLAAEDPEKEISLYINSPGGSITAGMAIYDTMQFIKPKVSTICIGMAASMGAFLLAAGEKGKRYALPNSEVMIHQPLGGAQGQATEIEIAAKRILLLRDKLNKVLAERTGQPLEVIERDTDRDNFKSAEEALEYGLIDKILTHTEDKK
#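 ClpP 10 microg/mL final, pH 8 Tris/KCl buffer with BSA, glycerol, Tween-20; compound pinned in; FRET-FV substrate; RT 20 min; Ex320/Em430; ΔFRET vs ADEP 5.8 microM, DMSO, no enzyme.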
# TRPV1 potentiator: HTS Assay for Compounds that Act as Potentiators of the Vanilloid Receptor 1. potentiation, % at 8.33 µM. hit rate 0.02% among 320,000. TRPV1-expressing cells, Fluo-8 calcium influx, capsaicin EC20 potentiation; host cell line not named in the record; control for the full effect not named in the record; active means potentiation above 80%; inconclusive means 30% to 80%; inactive means below 30%; further: 0% is about no effect
# Target sequence (Q8NER1 whole entry, looked up): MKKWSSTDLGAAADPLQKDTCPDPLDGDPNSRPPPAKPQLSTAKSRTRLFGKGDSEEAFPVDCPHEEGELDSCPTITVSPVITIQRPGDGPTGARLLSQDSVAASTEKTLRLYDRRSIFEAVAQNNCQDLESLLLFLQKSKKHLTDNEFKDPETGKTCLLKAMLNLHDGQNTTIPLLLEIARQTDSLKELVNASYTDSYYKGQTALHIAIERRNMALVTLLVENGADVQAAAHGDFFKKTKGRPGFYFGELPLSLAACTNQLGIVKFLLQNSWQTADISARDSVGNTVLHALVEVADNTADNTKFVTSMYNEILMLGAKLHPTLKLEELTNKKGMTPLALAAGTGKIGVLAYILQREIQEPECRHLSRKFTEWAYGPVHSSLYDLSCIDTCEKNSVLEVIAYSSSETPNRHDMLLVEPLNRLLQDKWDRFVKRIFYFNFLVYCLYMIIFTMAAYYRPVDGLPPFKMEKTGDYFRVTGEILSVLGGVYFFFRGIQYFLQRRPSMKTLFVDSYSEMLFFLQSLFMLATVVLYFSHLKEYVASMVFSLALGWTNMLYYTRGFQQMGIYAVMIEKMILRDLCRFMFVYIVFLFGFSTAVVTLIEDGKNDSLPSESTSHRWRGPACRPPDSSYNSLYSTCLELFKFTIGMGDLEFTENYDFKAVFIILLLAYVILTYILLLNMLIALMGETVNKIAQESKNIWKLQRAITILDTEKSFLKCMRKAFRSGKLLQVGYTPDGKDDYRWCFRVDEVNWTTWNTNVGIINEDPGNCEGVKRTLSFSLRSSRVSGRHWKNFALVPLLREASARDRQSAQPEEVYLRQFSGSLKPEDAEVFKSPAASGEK
#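 TRPV1-expressing cells were cultured overnight at 35.5C and loaded with Fluo-8 calcium dye for 40 to 90 min at room temperature. After a 10 s baseline, compound was added and calcium influx was read kinetically for 3 min (ex 480/em 520 nm).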
# CtBP-E1A inh: qHTS Assay for Inhibitors of the CtBP/E1A Interaction. CtBP / adenovirus E1A interaction (AlphaScreen). AlphaScreen GST-E1A/His-CtBP binding, 1536-well; stronger effect = lower value; control for the full effect not named in the record. activity change, % (no concentration beside the values). hit rate 0.49% among 340,000. AID 651724, 2012; in the data active means activity change below about -65%; inconclusive means about -30% to -65%; inactive means above about -30%; further: on the % scale 0 is the no-effect control and ±100 the full control effect; compound concentration not given in the record
#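 GST-E1A and His-tagged CtBP (125 nM each as 5X stock) were preincubated with pin-transferred compound for 2 h at 37 °C in the dark, then glutathione donor and nickel acceptor beads were added for 1 h before AlphaScreen reading.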
# gsp agonist: qHTS for Agonist of gsp, the Etiologic Mutation Responsible for Fibrous Dysplasia/McCune-Albright Syndrome: qHTS. gsp mutant cells, cAMP HTRF, 30 min; control for the full effect not named in the record. Potency, µM (doses to about 76.9 µM), for inactives: at the top dose activation (cAMP increase), actives largely listed as activators. hit rate 0.13% among 340,000; active = well fitted activation curve with a large enough effect; inconclusive = small, poorly fitted or top-dose-only effect, or another doubt; inactive = no such curve, though single readings can be large or run the other way; cell line not stated here;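 further: phosphodiesterase inhibitor Ro 20-1724 added with compounds to block cAMP breakdown; potency means the concentration at half of the fitted maximal effect; nearly all actives have a fitted effect of over 60% in size; about a fifth of the inactives were tested at one dose only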
#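 Cells stably selected in G418 were plated at 2000/well, grown 16-24 hr, then given compounds in DMSO with the PDE inhibitor […] (300 uM solution added) for 30 min at 37C; cAMP was read by HTRF.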
# gsp antag: qHTS for Antagonists of gsp, the Etiologic Mutation Responsible for Fibrous Dysplasia/McCune-Albright Syndrome: qHTS | gsp-mutant cells, cAMP HTRF, 30 min; control for the full effect not named in the record | Potency, µM (doses to about 76.9 µM), for the others: top-dose activity change, negative = inhibition, usual class: inhibitors | hit rate 0.4% among 340,000 | AID 624288, 2012; active = falling curve of any shape with a large fitted effect; inconclusive = falling curve, mostly with a smaller effect; inactive = flat or rising curve; cell line not stated here;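 further: intracellular cAMP measured with PDE inhibitor Ro 20-1724 present during compound exposure; potency means the concentration at half of the fitted maximal effect; on the % scale 0 is the no-effect control and ±100 the full control effect; nearly all actives have a fitted effect of over 65% in size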
#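 Cells in G418 medium, seeded 16-24 h, 37C; buffer exchange to DPBS + 1 mM CaCl2, 0.5 mM MgCl2, 0.05% BSA; cpds in DMSO + […] (300 uM stock), 30 min 37C; HTRF cAMP detection.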
# Sfp PPTase inh: qHTS Assay for Inhibitors of Bacillus subtilis Sfp phosphopantetheinyl transferase (PPTase). 4'-phosphopantetheinyl transferase ffp (Bacillus subtilis), Q9F4F7. Biochemical Sfp PPTase activity, qHTS. Potency, µM, for the others: max response, negative = inhibition, usual class: inhibitors. hit rate 3.5% among 310,000. AID 1490, 2009; active means well fitted inhibition curve with a large enough effect; inconclusive means small, poorly fitted or top-dose-only effect, or another doubt; inactive means no such curve, though single readings can be large or run the other way;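 further: the enzyme is Sfp with the accession as filed and its product quenches rhodamine fluorescence; potency means the concentration at half of the fitted maximal effect; 0% = enzyme reaction without inhibitor and -100% = no enzyme wells; top concentration of the series not given in the record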
#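 Step 1, compound plus 15 nM Sfp-PPTase, 15 min, room temperature. Step 2, add rhodamine-CoA (5 uM) and BHQ-2-YbbR (12.5 uM). Step 3, read 525/598 nm fluorescence at 0 and 30 min.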
# Numbers without * were called inactive; ? = inconclusive; . = no result given; [ ] = remark or other dose.
SMILES,Menin MLL FP FL,ClpP mod,TRPV1 potentiator,CtBP-E1A inh,gsp agonist,gsp antag,Sfp PPTase inh
COc1ccccc1OCCNC(=O)CN1C(=O)NC2(CCCC2)C1=O,.,1.5%,11.4,-3.5,6.8%,9.4%,.
NC(=O)C1CCN(C(=O)c2cc(Cl)c3c(c2)OCCO3)CC1,.,-2.0%,.,5.3,-11.4%,10.6%,.
Cc1cc(C)nc(/N=C(\N)Nc2ccc(SC(F)F)cc2)n1,-1.8,2.1%,-21.9,0.4,?,0.8%,-8.6%
OCCN(CCO)CC(O)CN1c2ccccc2Sc2ccccc21 (configuration not stated),-8.9,-5.6%,-7.7,.,?,5.6%,-1.2%
CS(=O)(=O)c1cnc2c(S(=O)(=O)c3ccccc3)cnn2c1N,-2.0,.,8.2,5.8,1.7%[15.4 µM],-3.5%,8.1%
COc1ccccc1NC1=NC(c2ccc(Cl)cc2)N=C(N)N1 (configuration not stated),1.2,-3.0%,-8.8,-15.7,-81.7%[inhibitor],11.9%,-13.2%
Cc1ccc(NC(=O)c2ccc(NS(=O)(=O)c3ccc4[nH]c(=O)[nH]c4c3)cc2)nc1,.,-1.9%,-12.6,-10.7,7.6%[15.4 µM],5.0%,.
CCN(C(=O)CSc1n[nH]c(N)n1)C1CCCCC1,.,3.1%,.,0.0,-2.5%,13.7%,.
CC(C)(C)C(=O)CSc1ncccn1,4.7,.,-11.4,-19.9,-2.7%,7.0%,44.7µM*
COC(=O)C(CC(C)C)Oc1ccc2c(C)cc(=O)oc2c1 (configuration not stated),4.5,15.8µM*,3.8,8.2,-1.0%,-8.2%,?
Cc1cc(N2CCN(C)CC2)nc2ccc(NC(=S)NCc3cccs3)cc12,-1.6,.,2.7,-10.3,-5.5%[15.4 µM],0.1%,4.9%
CC(C)(C)c1cc(/C=N/NC(=O)Cc2nc3ccccc3[nH]2)cc(C(C)(C)C)c1O,1.4,-10.3%,-8.9,-5.2,-1.5%,5.5%,15.2%
CC(OC(=O)CC1CC2CCC1C2)C(=O)Nc1ccc(N2CCOCC2)cc1 (configuration not stated),-2.1,-2.4%,-10.5,-26.8,7.4%,-3.5%,4.1%
COC(=O)c1ccccc1C(=O)c1ccc2c(c1)NC(=O)CO2,-2.6,-1.2%,-4.3,4.8,-11.8%[15.4 µM],0.0%,19.8%
Cc1cc(C(=O)NNC(=O)CN2C(=O)NC3(CCCCC3)C2=O)c(C)o1,.,0.8%,-8.7,.,3.8%,7.7%,.

# The closing 2 records of the section before lead into the next:
SMILES,Menin MLL FP FL,ClpP mod,TRPV1 potentiator,CtBP-E1A inh,gsp agonist,gsp antag,Sfp PPTase inh
COC(=O)c1ccccc1C(=O)c1ccc2c(c1)NC(=O)CO2,-2.6,-1.2%,-4.3,4.8,-11.8%[15.4 µM],0.0%,19.8%
Cc1cc(C(=O)NNC(=O)CN2C(=O)NC3(CCCCC3)C2=O)c(C)o1,.,0.8%,-8.7,.,3.8%,7.7%,.
CC(C)(C)n1nc2c(c1NC(=O)COc1ccc3ccccc3c1)CS(=O)(=O)C2,2.8,-3.2%,15.3,5.4,14.8%,-4.3%,8.8%
Cc1cc(C(=O)COC(=O)c2cccc(O)c2)c(C)n1C1CC1,.,1.5%,-4.2,-2.6,-49.8%[inhibitor],-5.3%,.
O=C(Cc1cccs1)Nc1ccc(F)cc1F,4.5,.,?,8.1,-50.6%[inhibitor],5.4%,21.1%
COc1ccc(CC(=O)Nc2nnc(C(C)(C)C)s2)cc1OC,-5.3,.,-5.8,2.8,-8.5%[15.4 µM],7.9%,14.2%
CCN1CCN(S(=O)(=O)c2cccc([N+](=O)[O-])c2)CC1,-2.5,-1.3%,8.4,0.1,21.6%,-1.8%,14.6%
CCCn1nnc(NC(=O)/C=C/c2cc(Br)ccc2OC)n1,2.1,-8.4%,-1.0,4.1,8.9%[15.4 µM],-0.6%,12.1%
CCOC(=O)C1CCCN(c2c(NCC3CCCN3CC)c(=O)c2=O)C1 (configuration not stated),0.5,-3.6%,-9.0,-24.3,-4.7%,7.0%,14.1%
Nc1nc(SCc2ccccc2)c2ncn(Cc3ccccc3)c2n1,.,0.6%,.,4.7,-3.8%[15.4 µM],0.9%,.
Cc1ccc(-c2nc3ccccc3s2)cc1NC(=S)NC(=O)/C=C/c1ccco1,9.6,-0.7%,-15.9,-15.3,?,-1.2%,-13.5%
CCOC(=O)C1=C(C)NC(=S)NC1c1ccc(-c2cccc(Cl)c2C)o1 (configuration not stated),-1.3,-4.5%,0.5,3.3,-6.7%,-18.1%,56.2µM*
O=C(N1CCOCC1)N1CCC(n2nnc3ccccc32)CC1,-0.8,-1.2%,-5.1,8.3,-15.8%,5.3%,4.8%
Cc1ccc(NC(=O)c2ccc3c(c2)[nH]c(=O)n3C(C)C)cc1,1.3,.,-10.4,.,11.3%[15.4 µM],-11.7%,10.4%
O=C(COc1cccc(OC(F)F)c1)Nc1ccc(SC(F)F)cc1,0.3,-3.5%,-3.7,15.5,-60.0%[inhibitor],-9.0%,18.0%
CCN1C(=O)C(NC(C)=O)c2cc(Br)ccc21 (configuration not stated),0.5,-1.1%,-12.2,10.3,-35.8%[inhibitor],-3.9%,0.9%
Cc1nn(CC(=O)NC(C)c2ccccc2)c(=O)c2ccccc12 (configuration not stated),1.2,-0.4%,-8.3,-2.9,8.9%,5.0%,-2.4%
CCCN(CCC)C(=O)C1CCC(CNS(=O)(=O)c2cccc3nsnc23)CC1 (configuration not stated),.,-1.5%,-4.3,-8.7,20.8%,-8.4%,8.6%
COc1ccc(NC(=O)c2sc3nc(N4CCCC4)c4c(c3c2N)CC(C)(C)OC4)c(OC)c1,1.2,4.2%,-2.7,8.1,17.8%,-1.2%,?
COc1ccc(C(=O)Nc2nnc(C)s2)cc1S(=O)(=O)N1CCOCC1,.,-0.2%,-4.0,0.5,-1.8%,-18.9%,.
O=C(O)CCN1C(=O)/C(=C/c2cn(-c3ccccc3)nc2-c2cccs2)SC1=S,1.3,.,-4.4,-4.2,2.5%,35.5µM*,20.7%
O=c1c(CN2CCN(c3ccccn3)CC2)coc2ccccc12,0.8,-4.0%,8.6,-5.9,9.4%,8.1%,-7.6%
O=[N+]([O-])c1ccc(CS(=O)c2ccccc2)cc1 (configuration not stated),.,-2.3%,.,6.5,18.0%,1.7%,.
COc1cc(/C=C/C(=O)O)cc(S(=O)(=O)Nc2ccccc2C(=O)NCc2ccco2)c1OC,.,.,.,-16.4,12.3%,3.3%,.
CCN1C(=S)SC(=O)C1=C1C=C(C)N(CCO)C(C)=C1,?,0.9%,-13.7,6.8,2.1%,-26.5%,?
O=C(COC(=O)/C=C/c1ccc(Cl)cc1)NC1CC1,.,-1.2%,.,-27.2,-40.6%[inhibitor],4.1%,.
CCOC(=O)c1c(-c2cccs2)csc1NC(C)=O,3.8,-12.9%,-7.7,0.7,20.4%,-16.7%,5.8%
CCOC(=O)c1csc(NC(=O)Nc2cccc(OC)c2)n1,-2.0,.,7.7,.,.,.,7.7%
CCC(=O)Nc1c2c(nn1-c1ccccc1C)CSC2,2.2,-0.4%,4.8,3.3,-3.4%,-14.8%,56.2µM*
CCn1nc(C)c(/C=N/NC(=O)CSc2ccccn2)c1C,-0.4,.,-19.3,10.6,-2.2%[15.4 µM],-1.3%,8.3%
N=c1oc2ccc([N+](=O)[O-])cc2cc1C(=O)NCc1ccccc1,?,-0.6%,8.9,.,?,0.0%,-6.4%
Cc1cccc(OCCCC(=O)Nc2nnc(C3CCCO3)s2)c1C (configuration not stated),-2.4,0.8%,10.5,-3.2,14.4%,5.2%,11.3%
Cc1nnc(SCC(=O)NC23CC4CC(CC(C4)C2)C3)s1,-8.5,.,-11.7,3.2,-8.4%,1.4%,11.8%
CC(=O)Nc1cc(C(=O)N(C)Cc2ccco2)ccc1Sc1ccc(Cl)cc1,0.5,-1.8%,1.7,-2.3,-52.2%[inhibitor],?,-9.6%
Cc1cc(C)c(S(C)(=O)=O)c(=O)[nH]1,1.9,.,3.6,0.0,-21.0%,1.2%,9.6%
Oc1ccc(C(=S)N2CCN(c3cccc(Cl)c3)CC2)cc1,3.7,-0.4%,1.4,-9.8,7.5%[15.4 µM],-40.2%,15.8µM*
COc1cccc(OC)c1C(=O)NC(=O)Nc1c(F)c(F)c(F)c(F)c1F,-0.8,-7.1%,.,.,0.0%,2.5%,0.6%
O=C(NCc1cccc(Cl)c1)c1ccc2nc[nH]c2c1,7.3,5.7%,1.8,0.0,13.3%,4.8%,13.4%
CCOC(=O)c1cc(-c2sc(NC(=O)c3ccccc3)nc2C)n(-c2ccc(Br)cc2)n1,.,?,.,0.0,6.1%,.,.
CCOC(=O)CSC1=C(C#N)C(=O)NC2(CCCCC2)S1,-1.0,?,9.2,3.7,-11.5%,0.2%,50.1µM*
O=C(O)CCc1ccc(-c2ccc(Cl)cc2)n1CC(=O)Nc1ccccc1,-2.9,-14.3%,7.5,-3.4,7.4%,-0.8%,10.0%
COc1cc(NC(=O)c2ccc(Br)o2)ccc1NC(=O)c1ccccc1Cl,-0.7,0.0%,-14.4,-24.8,-1.8%,-23.1%,?
COc1cc2c(cc1OC)C(c1cccc(F)c1)CC(=O)N2 (configuration not stated),0.2,.,6.6,-15.4,4.6%,-1.9%,1.7%
COCCNC(=O)c1ccc(NS(=O)(=O)c2cc(C)ccc2C)cc1,-1.1,-0.3%,6.4,15.3,10.1%,-7.0%,3.4%
CCc1ccc2c(c1)C1(NN=C(c3ccccc3)S1)C(=O)N2 (configuration not stated),9.2,-0.1%,18.0,-14.3,2.8%,-1.3%,8.91µM*
Cc1occc1C(=O)OCC(=O)Nc1ccc(F)cc1,-2.4,-15.5%,-9.4,-1.6,0.2%,1.9%,4.3%
